eIF4H inh: inhibitors of RNA binding by human eIF4H. Q15056. eIF4H fluorescence polarization binding assay. inhibition, % at 35 µM. 290,000 compounds, 0.94% hits;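 active = 50% or more with normal probe brightness, or confirmed in later tests; inconclusive = above 50% with abnormal brightness, or retests that disagree; inactive = below 50% or failed in later tests; about a fifth of its hits are not listed in these tables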;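 also: calls also rest on retests at 20 µM and on dose response follow-up; 0% = protein and probe with vehicle and 100% = probe without protein; strong numbers were not always called active; many hits fall short of the cut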
HIV Env fusion: inhibitors of HIV Env-mediated cell fusion; HeLa-JRFL Env/CEM21 cell fusion, luciferase; inhibition, % at 12.3 µM; 360,000 compounds, 1.1% hits; AID 651610;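 active = mean replicate inhibition score of at least 50 and every replicate individually at or above 50; inconclusive = only one of the two criteria met; inactive = mean below 50 and not all replicates reaching 50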;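 also: 0% = plate neutral controls and 100% = maraviroc near 300 nM; one replicate is shown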
CSC inhib: cancer stem cell inhibition. 300,000 compounds, 1.1% hits. cancer stem cell-like cells viability, luminescence. AID 2717. inhibition, % at 7.5 µM;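 active = mean at 75% or more and at least half the replicates too; inconclusive = mean and replicates disagree; tested in HMLE shEcad cells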;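 also: 0% = median of negative and 100% = median of positive control wells; the first replicate is given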
MT1-MMP act inh: inhibitors of human MT1-MMP activation | GFP/RFP ratio change, % at 20 µM | AID 651647 | HT1080 RFP-PRO-GFP cells, GFP/RFP ratio fluorescence, overnight; percent of plate control window, DMSO zero | P50281 | 360,000 compounds, 0.061% hits;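 active = GFP/RFP ratio change of at least 30% with cell ATP level not reduced by more than half and red fluorescence within 50% of control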; also: strong numbers were not always called active
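Compound: 20 µM single dose, 1% DMSO / System: HT1080 RFP-PRO-GFP cells / Controls: DMSO and RFP-L50D-GFP cell wells / Read-out basis: GFP/RFP fluorescence ratio / Schedule: overnight compound exposure at 37 °C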
Yeast UUG start: modulators of start codon recognition fidelity in yeast | AID 602363 | S. cerevisiae UUG-firefly luciferase reporter, luminescence/redox ratio | activity score, % at 18.7 µM | 350,000 compounds, 0.13% hits;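 active = replicate mean at a twofold rise or more, about +100% in these data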;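 also: firefly luciferase made from a UUG start codon reports start codon fidelity; reporter light over untreated wells divided by growth signal over untreated wells; some hits fall short of that in this replicate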
PABP polyA inh: blocks human PABP binding to poly(A) RNA; P11940; 290,000 compounds, 1% hits; fluorescence polarization; inhibition, % at 35 µM;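 active = 50% or more with normal probe brightness, or confirmed in later tests; inconclusive = above 50% with abnormal brightness, or retests that disagree; inactive = below 50% or failed in later tests; about a fifth of its hits are not listed in these tables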;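 also: calls also rest on retests at 20 µM and on dose response follow-up; controls were probe without protein and protein plus probe with vehicle; some compounds called inactive have numbers as strong as hits; many hits fall short of the cut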
Target sequence (P11940 whole entry, looked up): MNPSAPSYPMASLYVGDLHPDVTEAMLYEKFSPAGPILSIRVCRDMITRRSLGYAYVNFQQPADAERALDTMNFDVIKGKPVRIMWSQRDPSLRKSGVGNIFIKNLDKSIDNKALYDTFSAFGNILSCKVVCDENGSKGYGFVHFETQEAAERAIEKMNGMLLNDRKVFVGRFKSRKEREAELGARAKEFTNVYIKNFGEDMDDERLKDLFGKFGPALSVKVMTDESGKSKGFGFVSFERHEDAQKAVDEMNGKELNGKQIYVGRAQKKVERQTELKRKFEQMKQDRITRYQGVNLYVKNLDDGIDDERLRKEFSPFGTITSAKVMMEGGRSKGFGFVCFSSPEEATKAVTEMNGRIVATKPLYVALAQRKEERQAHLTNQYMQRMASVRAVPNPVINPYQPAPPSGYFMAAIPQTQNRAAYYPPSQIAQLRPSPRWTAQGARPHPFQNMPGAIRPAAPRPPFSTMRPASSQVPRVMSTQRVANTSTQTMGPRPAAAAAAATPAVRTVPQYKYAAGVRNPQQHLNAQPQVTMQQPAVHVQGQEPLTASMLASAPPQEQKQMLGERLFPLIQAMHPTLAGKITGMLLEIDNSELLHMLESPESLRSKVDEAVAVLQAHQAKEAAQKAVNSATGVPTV
Rce1 inh: yeast Ras-converting enzyme inhibition; Q03530; yeast membranes, quenched prenylated peptide cleavage fluorescence; calls only; 290,000 compounds, 0.27% hits; AID 2563;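 active = fall in fluorescence gain of 50% or more versus controls, with final raw signal at or below 3038400; inconclusive = same 50% fall but final raw signal above 3038400; inactive = fall in fluorescence gain under 50%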;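 also: plate controls were neutral control wells for no effect and wells lacking membranes for full effect; tested at 10 µM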
Target sequence (Q03530 whole entry, looked up): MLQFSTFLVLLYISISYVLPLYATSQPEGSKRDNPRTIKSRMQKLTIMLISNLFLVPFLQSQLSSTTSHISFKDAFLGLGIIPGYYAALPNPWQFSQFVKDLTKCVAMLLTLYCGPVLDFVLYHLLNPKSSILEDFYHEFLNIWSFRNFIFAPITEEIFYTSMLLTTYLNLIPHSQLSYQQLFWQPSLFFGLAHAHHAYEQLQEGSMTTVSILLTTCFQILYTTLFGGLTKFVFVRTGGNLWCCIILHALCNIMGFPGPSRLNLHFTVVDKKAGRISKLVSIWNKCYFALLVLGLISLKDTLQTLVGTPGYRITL
eIF4H inh retest: further read-out of eIF4H inh, marked with its call; inhibition, %; compound at 20 µM; confirmation average;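 mean of two retest wells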
PABP polyA inh retest: second read-out of PABP polyA inh, no call of its own (marks repeat the call); inhibition, %; compound at 20 µM; confirmation repeats;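 mean of two retest wells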
MT1-MMP act inh RFP: further read-out of MT1-MMP act inh, marked with its call; RFP signal change, %; measured here: RFP expression control read;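 0 = vehicle wells; hits needed this value within 50% of zero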
* hit, by the source's call; i = inactive; ? = inconclusive; . = not tested or not shown.

SMILES	eIF4H inh	HIV Env fusion	CSC inhib	MT1-MMP act inh	MT1-MMP act inh RFP	Yeast UUG start	PABP polyA inh	Rce1 inh	others
COC(=O)c1ccc(NC(=O)CN2C(=O)c3ccccc3S2(=O)=O)cc1	4	16	2	0	0	3	-1	i
CCOCCCNS(=O)(=O)c1ccc(NC(=O)CN2C(=O)c3ccccc3C2=O)cc1	-8	-5	-8	5	3	-9	-13	i
CCCN(CCC)c1nc(N)nc(-c2cc(Cl)ccc2OC)n1	1	.	2	1	-10	.	0	i
O=C(CNC(=O)C1COc2ccccc2O1)N/N=C\c1ccc(Br)cc1 (centres undefined)	-9	-7	-6	4	10	-3	-3	i
CCOc1ccccc1-n1c(C)cc(C=O)c1C	-6	-1	-10	3	4	-12	4	i
COc1ccc(NC2=C3CC(C)CC=C3N(c3ccc(OC)cc3)C2=O)cc1 (centres undefined)	-4	-2	9	3	3	0	-6	i
CCc1ccc(C(=O)NNC(=O)CN2C(=O)NC3(CCCC3)C2=O)cc1	.	5	.	-1	5	-2	.	.
CC(=O)Nc1nc(-c2ccc3c(c2)CCN3C(=O)C2CC2)c(C)s1	-2	51	.	.	.	-8	1	i
Cc1ccc(S(=O)(=O)N(C)c2c(C)ccc(S(N)(=O)=O)c2C)cc1	-8	-1	6	-1	-3	.	-13	i
Cc1noc(C)c1C(=O)NC(C)C12CC3CC(CC(C3)C1)C2 (centres undefined)	-11	21	-4	0	-2	.	2	i
O=C(COC(=O)c1ccccn1)Nc1ccc2c(c1)OCCO2	.	.	-14	-2	2	-35	.	.
Cc1ccc(S(=O)(=O)N2CCC3(CC2)OCCN3S(=O)(=O)c2cccs2)cc1	.	0	-10	-3	-7	-11	.	i
COC(=O)c1cccc(NC(=O)c2cccnc2)c1	15	.	-7	0	3	-19	11	i
COc1cccc(-c2cnc(C(O)c3c(C)cccc3C)[nH]2)c1 (centres undefined)	.	-61	.	-1	1	-24	.	.
COc1ccc(N(CC(=O)N/N=C/c2cccs2)S(=O)(=O)c2ccccc2)cc1	-17	-13	3	0	2	.	10	i
C/C(=C\c1ccco1)C1C(C#N)=C(N)Oc2n[nH]c(-c3ccc(C)cc3)c21 (centres undefined)	-7	.	8	-9	-2	-17	-1	i
COc1cc(C(=O)N2CCCN(C)CC2)cc(OC)c1C	29	-4	-5	3	4	-12	14	i
CC1(c2nnc(-c3ccncc3)o2)CC(c2c(Cl)cccc2Cl)=NO1 (centres undefined)	7	6	-18	-2	-1	-16	7	i
O=C1NC(c2ccncc2)C(C(=O)c2cccs2)C(O)(C(F)(F)F)N1 (centres undefined)	-1	-38	-4	2	6	-6	0	i
C[C@@H]1COC(=O)[C@H](Cc2ccc(F)cc2)C/C=C\C[C@@H](CC(=O)N[C@H](CO)Cc2ccccc2)C(=O)N1	.	-45	9	6	0	-6	.	.

2 entries drawn at random from the list so far:
SMILES	eIF4H inh	HIV Env fusion	CSC inhib	MT1-MMP act inh	MT1-MMP act inh RFP	Yeast UUG start	PABP polyA inh	Rce1 inh	others
C/C(=C\c1ccco1)C1C(C#N)=C(N)Oc2n[nH]c(-c3ccc(C)cc3)c21 (centres undefined)	-7	.	8	-9	-2	-17	-1	i
Cc1ccc(S(=O)(=O)N2CCC3(CC2)OCCN3S(=O)(=O)c2cccs2)cc1	.	0	-10	-3	-7	-11	.	i

Returning to the listing; the two compounds before the break are reprinted first.
SMILES	eIF4H inh	HIV Env fusion	CSC inhib	MT1-MMP act inh	MT1-MMP act inh RFP	Yeast UUG start	PABP polyA inh	Rce1 inh	others
O=C1NC(c2ccncc2)C(C(=O)c2cccs2)C(O)(C(F)(F)F)N1 (centres undefined)	-1	-38	-4	2	6	-6	0	i
C[C@@H]1COC(=O)[C@H](Cc2ccc(F)cc2)C/C=C\C[C@@H](CC(=O)N[C@H](CO)Cc2ccccc2)C(=O)N1	.	-45	9	6	0	-6	.	.
COc1ccc(Cl)cc1N1C(=O)C2CCCN2C1c1ccccc1F (centres undefined)	1	2	-2	1	4	-9	-7	i
O=C(Nc1nnc(SCc2ccc(F)cc2)s1)C1CC(=O)N(Cc2ccccc2)C1 (centres undefined)	7	16	-4	4	-3	-9	4	i
COc1c(F)c(F)c(C(=O)Nc2ccccc2N2CCN(C(C)=O)CC2)c(F)c1F	-5	.	-3	-3	0	6	0	i
C=CCNc1nc(Nc2ccc([N+](=O)[O-])cc2)nc(N2CCCC2)n1	-3	-19	-10	1	-5	.	-13	i
Cc1cc(Oc2nc3c(C)cccn3c(=O)c2/C=C(\C#N)S(=O)(=O)c2ccc(Cl)cc2)ccc1Cl	41	0	47	-6	2	.	5	i
COCCN(C(=O)Cn1nnc2ccccc21)C(C(=O)NC1CCCCC1)c1ccc(OC)cc1OC (centres undefined)	-8	.	-12	3	-1	41	0	i
Cc1oc2c(C)c(O)ccc2c(=O)c1-c1cnn(-c2ccccc2)c1	-10	-79	64	5	-2	1	-6	i
Cc1nc2cc(NC(=O)c3ccc(N4C(=O)CCC4=O)cc3)ccc2s1	-2	4	-8	2	1	.	-2	.
O=C(O)CCN1C(=O)c2ccc(NC(=O)c3cccs3)cc2C1=O	-6	-2	-8	-7	-3	-8	6	i
CS(=O)(=O)N(CC(=O)NCCC1=CCCCC1)c1ccc2c(c1)OCO2	-3	6	-5	7	3	-5	8	i
Cc1ncc(CN2CCCC(CCC(=O)NCc3ccc(F)c(F)c3)C2)s1 (centres undefined)	8	6	-1	0	-3	.	5	i
CC(Sc1nc(-c2ccco2)nc2c1c(=O)n(C)c(=O)n2C)C(=O)O (centres undefined)	-5	3	-17	3	2	6	2	i
N/C(Cc1ccccc1)=N\OC(=O)c1cccc2ccccc12	10	-39	2	-1	-5	-14	-2	i
O=C(O)c1cccc(NC(=O)c2cn(-c3ccccc3)nc2-c2cccc(Br)c2)c1	23	-16	7	6	5	-17	20	i
O=C(O)CCCCCCCCCCP(=O)(c1ccccc1)c1ccccc1	-6	-13	8	-2	2	9	-3	i
COc1ccccc1Cn1c(=O)c2ccccc2n2c(Sc3ncnc4sccc34)nnc12	-5	37	11	-8	-9	-21	2	i
Cc1cc(Cl)c(S(=O)(=O)N(C)C)cc1OCC(N)=O	-13	.	-5	-6	-2	-23	-3	i
O=C(O)Cn1c(-c2ccccn2)nc2ccccc21	-5	-21	-13	0	5	-13	-2	i
O=c1[nH]c(Cc2ccccc2)nc2c1oc1ccccc12	-7	-104	-8	6	-4	1	-7	i
CCN(CC)CCNC(=O)c1cc2c(s1)-c1ccccc1SC2	-4	-10	51	-9	-7	-12	-11	i
COc1cc(CCCN2CCNC[C@@H]2C(C)O)cc(OC)c1OC (some centres undefined)	.	-13	2	2	4	-2	.	i
Nc1ccccc1S(N)(=O)=O	.	1	7	2	5	-13	.	.
COC(=O)NNC(=O)COc1ccccc1C	1	21	-8	-1	-1	-17	1	i
CCOc1ccc(S(=O)(=O)N2CCC(C(=O)NCc3ccccn3)CC2)cc1C	-8	13	-10	5	2	-21	1	i
O=C(CC12CC3CC(CC(C3)C1)C2)N1CCCOC1	7	29	-4	5	-1	-7	1	i
Cc1ccc(OC(F)F)c(NC(=O)Nc2cccc(C(F)(F)F)c2)c1	-11	.	5	-19	-21	-10	-7	i
Cc1cc(NC(=O)c2c(Br)c(C)nn2C)no1	-12	0	-9	3	4	.	11	i
COc1ccc(C/C(N)=N/OC(=O)c2cccc([N+](=O)[O-])c2)cc1	-12	13	4	1	-6	-21	-12	i
CC(OC(=O)C1CC(=O)N(Cc2ccccc2)C1)C(=O)Nc1cccc(C#N)c1 (centres undefined)	-12	13	-3	2	2	-2	2	i
NS(=O)(=O)c1ccc(NC(=O)CSc2n[nH]c(=O)n2Cc2ccccc2)cc1	-2	4	-10	1	7	-12	-1	i
O=C(CS(=O)(=O)Cc1ccccc1)N1CCN(c2cccc(C(F)(F)F)c2)CC1	5	-60	-10	-4	-4	-7	7	i
CNc1nc(C)c(C(=O)OCc2ccccc2)s1	2	-2	11	-4	-2	-31	-8	.
O=C(Cc1ncc(C(F)(F)F)cc1Cl)Nc1cccc(Br)c1	-2	-4	8	-1	-2	-16	-11	i
CC(=O)OC(C(=O)NCCN1CCOCC1)c1c(F)cccc1F (centres undefined)	-7	6	-11	1	-5	.	-5	.
CCc1ccc(NC(=O)C(=O)NCC(O)c2ccccc2)cc1 (centres undefined)	5	-7	4	5	7	.	-7	i
CC(=O)c1ccc(OCc2cc(C(=O)NCC3CCCCO3)no2)cc1 (centres undefined)	-4	-13	12	-2	0	.	-16	i
CCOC(=O)[C@@H]1[C@H]2COc3ccccc3[C@@H]2N2C(=O)N(c3cccc(C)c3)C(=O)[C@@]12C	.	27	-16	2	2	5	.	.
CCOc1ccc(C(=O)OCC(=O)N2CCCC2)cc1	-18	-7	-24	0	4	-10	-4	i
OCCN1CCOCCOc2ccccc2OCCOCC1	-6	0	-20	-5	-2	-14	-9	i
O=c1c2c([nH]c3ccccc13)C(=C1CCCC1)CC2	82*	.	13	3	-1	.	70*	i	eIF4H inh retest=94*;PABP polyA inh retest=93*
Cc1ccc(S(=O)(=O)N2CCN(C(=O)COC(=O)CC(C)c3ccccc3)CC2)c(C)c1 (centres undefined)	.	3	.	1	0	12	.	.
OC(C#CCN1CCCC1)c1ccccc1 (centres undefined)	-6	.	-10	0	9	7	-2	i
CC(=O)c1ccc(N2CCN(C(=O)c3ccc(Br)cc3)CC2)c(F)c1	-2	.	46	5	-3	-30	-4	i
O=C(O)c1ccc2c(=O)n3c(nc2c1)/C(=C/c1ccc(Cl)cc1Cl)CC3	-3	4	-3	3	0	-14	23	i
CCCNC(=O)C1(CC2CC(c3ccccc3)=NO2)CCN(C(=O)Cc2ccc(F)cc2)CC1 (centres undefined)	.	-79	-7	-1	1	2	.	i
Cc1ccc(C(=O)Nc2cccnc2)cc1Cl	-11	-26	-3	0	-3	-14	9	i
Cn1cc(CN2CCCC(C(=O)Nc3cccc(-c4cc5ccccc5[nH]4)c3)C2)cn1 (centres undefined)	-8	-11	61	2	0	-3	0	.
COC(=O)c1sc2ccccc2c1NC(=O)c1ccc(S(=O)(=O)N2CC(C)CC(C)C2)cc1 (centres undefined)	-5	7	.	5	-1	.	-2	i
CCN(C(=O)COC(=O)c1cc2ccccc2cc1OC)c1c(N)n(Cc2ccccc2)c(=O)[nH]c1=O	.	9	.	2	-6	-2	.	.
O=C(Nc1nc2n(n1)C(c1ccccc1)C=C(c1ccccc1)N2)c1ccco1 (centres undefined)	14	.	1	4	5	-2	22	i
CCOC(=O)c1nnn(-c2nonc2-n2cccc2)c1CN1CCC(C(=O)OCC)CC1	-16	.	-2	-2	-4	4	-6	i
O=C(N/N=C/c1ccoc1)c1cccc([N+](=O)[O-])c1	18	8	-4	0	2	-7	10	i
O=C(CN1C(=O)C2CC=C(Cl)CC2C1=O)Nc1ccc(C(=O)O)cc1 (centres undefined)	20	-41	-20	-1	2	-7	28	i
CCOc1cc(C(=S)N2CCCC2)ccc1OC	-5	-11	-16	10	3	-16	4	i
CC(=O)C(=Cc1cc(C)n(-c2ccccc2)c1C)C(C)=O	54*	-8	4	.	.	.	7.4*	i	eIF4H inh retest=96*;PABP polyA inh retest=52*
O=C1Cc2cc(S(=O)(=O)N3CCCCC3)ccc2N1	-6	17	-4	-1	4	5	4	i
Cc1ccc(C#N)c(SCc2cc3c(cc2Cl)OCO3)n1	-3	-2	1	-3	0	-7	7	i
CC(OC(=O)CCC(=O)c1cccs1)C(=O)Nc1ccccc1[N+](=O)[O-] (centres undefined)	0	7	-1	-2	4	.	?	i
